NOMO-1 viab: STK33 inhibitor candidate reducing NOMO-1 cell viability; NOMO-1 AML viability, CellTiter-Glo luminescence, 72 h; inhibition, % (concentration not given with the values); hit rate 7.5% among 37,000; AID 2330;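 active means most replicates above 80%; inconclusive means exactly half above 80%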;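 further: wells of about 30 µL received 25 nL stock; 0% = median of vehicle wells and 100% = reference inhibitor level; the first replicate is given; inactives centre near 10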
Starred values were filed as active, the others as inactive; ? = inconclusive. A portion of the library; rates above refer to the full screens.

SMILES	NOMO-1 viab
C[C@@H]1CCCCO[C@@H](CN(C)C(=O)Nc2ccccc2)[C@@H](C)CN([C@H](C)CO)C(=O)c2cc(NS(=O)(=O)c3ccc(Cl)cc3)ccc2O1	31.5
COc1ccc(CCNc2nc(-c3ccc(NC(C)=O)cc3)cs2)cc1OC	50.2
C[C@@H]1CN([C@@H](C)CO)C(=O)c2cc(NC(=O)NC3CCCCC3)ccc2O[C@H]1CN(C)CC1CCCCC1	23.3
CS(=O)(=O)N(CC(=O)Nc1ccc(I)cc1)c1ccc(Cl)c(Cl)c1	89.8*
CC(=O)Nc1ccccc1NC(=O)CCN1C(=O)c2ccccc2C1=O	-16.3
C=C(CCCCCCCC(=O)O)C(=O)OC	20.1
CC(=O)c1cccc(NC(=O)CNS(=O)(=O)c2ccc(Cl)cc2)c1	-3.6
Cc1noc(C)c1NC(=O)N(C)C[C@@H]1Oc2ccc(NS(=O)(=O)c3ccc(F)cc3)cc2C(=O)N([C@H](C)CO)C[C@H]1C	5.7
C[C@H](CO)N1C[C@H](C)[C@@H](CN(C)Cc2ccccc2)Oc2ccc(NC(=O)Nc3ccccc3)cc2C1=O	10.4
C[C@@H]1CN([C@@H](C)CO)C(=O)c2cc(NC(=O)NC3CCCCC3)ccc2O[C@H]1CN(C)C(=O)Nc1ccc(F)cc1	-10.5
CCCN(C)C[C@@H]1OCCCC[C@@H](C)Oc2ccc(NC(=O)CCCCCC(=O)Nc3ccccc3N)cc2C(=O)N([C@H](C)CO)C[C@@H]1C	24.2
C[C@@H]1CN([C@@H](C)CO)C(=O)c2cccc(NC(=O)c3ccc(-c4nccs4)cc3)c2O[C@@H]1CN(C)Cc1ccc(Cl)c(Cl)c1	51.6
C[C@H]1CN([C@@H](C)CO)C(=O)c2cc(NC(=O)Cc3ccccc3)ccc2O[C@@H]1CN(C)Cc1ccc(C(=O)O)cc1	5.7
COc1ccc2c(C)cc(=O)oc2c1	-10.1
COc1ccc(NC(=O)N(C)C[C@@H]2Oc3ccc(NC(=O)Nc4ccc5c(c4)OCO5)cc3C(=O)N([C@H](C)CO)C[C@H]2C)cc1	28.5
N#CCCSc1nnc(-c2ccncc2)n1Cc1ccccc1	21.0
COc1ccc(C2C(=O)c3cc(OC)c(OC)cc3C2c2ccccc2)cc1OC (stereo unspecified)	30.1
COc1ccc(NC(=O)Nc2cccc3c2O[C@@H](CN(C)Cc2ccc4c(c2)OCO4)[C@@H](C)CN([C@@H](C)CO)C3=O)cc1	35.1
C[C@H](CO)N1C[C@H](C)[C@H](CN(C)CC2CCCCC2)Oc2ccc(NC(=O)c3ccncc3)cc2C1=O	11.8
O=C(CSc1nnc(-c2ccccc2)n1-c1ccccc1)Nc1c(F)cc(F)cc1Br	1.1
CNC[C@H]1Oc2ccc(NC(=O)Cc3cn(C)c4ccccc34)cc2C(=O)N([C@@H](C)CO)C[C@H]1C	19.8
C[C@@H]1CN([C@@H](C)CO)C(=O)Cc2cc(NC(=O)C3CCCCC3)ccc2O[C@@H]1CN(C)Cc1ccc(C(F)(F)F)cc1	69.2
N#Cc1ccc(CSc2nc(-c3cccs3)c3c(c2C(=O)O)CCCC3)cc1	10.7
Cc1noc(C)c1NC(=O)N(C)C[C@H]1Oc2c(NS(=O)(=O)c3cn(C)cn3)cccc2C(=O)N([C@H](C)CO)C[C@H]1C	-6.8
Cc1ccc(-c2csc3nnc(SCC(=O)Nc4ccc5c(c4)OCCO5)n23)cc1	3.7

(listing goes on)
SMILES	NOMO-1 viab
COc1cc(C[C@@H]2CO[C@@H](c3ccc(O)c(OC)c3)[C@@H]2CO)ccc1O	11.1
O=C(COc1ccccc1Cl)Nc1cccc(Oc2ccc3c(c2)C(=O)NC3=O)c1	-8.2
COC(=O)c1c(-c2cccnc2)csc1NC(=O)c1cc(-c2ccc(C)o2)nc2ccccc12	86.9*
Cc1noc(C)c1NC(=O)Nc1ccc2c(c1)CC(=O)N([C@H](C)CO)C[C@H](C)[C@H](CN(C)C(=O)Nc1c(C)noc1C)O2	4.5
C[C@@H]1CN([C@@H](C)CO)C(=O)Cc2cc(N(C)C)ccc2O[C@@H]1CN(C)CC1CC1	13.8
CCOC(=O)c1oc2nc(-c3ccco3)cc(-c3ccco3)c2c1N	-14.6
CCCCCc1c2c(cc(O)c1C(=O)O)OC(=O)c1c(cc(OC)cc1C(=O)CCCC)O2	3.0
Cc1noc(C)c1S(=O)(=O)Nc1ccc2c(c1)C(=O)N([C@H](C)CO)C[C@@H](C)[C@@H](CN(C)C(=O)Nc1cccc3ccccc13)O2	13.5
CN(c1ccccc1C(=O)NCc1ccccn1)S(C)(=O)=O	10.5
CC(C)NC(=O)Nc1ccc2c(c1)C(=O)N([C@@H](C)CO)C[C@@H](C)[C@H](CN(C)C(=O)NC(C)C)O2	33.7
CCOC(=O)c1c[nH]c(=S)[nH]c1=O	28.8
CC(=O)c1cn(CC(=O)Nc2ccccc2)c2ccccc12	18.7
CC1CCc2c(sc3ncn(CC(=O)Nc4ccccc4F)c(=O)c23)C1 (stereo unspecified)	8.6
COc1ccc(NC(=O)Nc2cccc3c2O[C@H](CN(C)C(=O)NC(C)C)[C@@H](C)CN([C@@H](C)CO)C3=O)cc1	-4.4
C[C@H]1CN([C@@H](C)CO)C(=O)c2cc(NC(=O)Nc3ccc4c(c3)OCO4)ccc2O[C@H]1CN(C)S(=O)(=O)c1ccc(Cl)cc1	43.4
COc1ccc(N2C(=O)CC(SCC(=O)Nc3ccc(C)cc3)C2=O)cc1 (stereo unspecified)	-26.5
C[C@@H]1CN([C@H](C)CO)C(=O)Cc2cc(NS(=O)(=O)c3ccc(Cl)cc3)ccc2O[C@@H]1CN(C)Cc1ccc(-c2ccccc2)cc1	122.1*
CC(=O)c1cccc(NC(=O)C(C)NS(=O)(=O)c2ccc(Br)cc2)c1 (stereo unspecified)	17.4
C[C@H]1CN([C@@H](C)CO)C(=O)c2cc(NC(=O)CCCN(C)C)ccc2O[C@@H]1CN(C)CC1CC1	-1.0
C[C@H]1CN([C@@H](C)CO)C(=O)c2cc(NC(=O)Cc3cn(C)c4ccccc34)ccc2O[C@H]1CN(C)C(=O)Nc1ccc(F)cc1	25.5
C[C@H](CO)N1C[C@H](C)[C@H](CN(C)Cc2ccc(Cl)c(Cl)c2)Oc2c(NC(=O)C3CCOCC3)cccc2C1=O	8.7
C[C@H](CO)N1C[C@H](C)[C@@H](CN(C)Cc2ccc(C(=O)Nc3ccccc3N)cc2)Oc2ccc(NC(=O)c3ccncc3)cc2C1=O	20.7
Cc1ccc(NC(=O)C(C)Sc2nnc(-c3cccc([N+](=O)[O-])c3)n2C)cc1 (stereo unspecified)	7.5
CCn1c(SCc2nc3ccccc3c(=O)[nH]2)nnc1-c1cccnc1	40.8
Cc1noc(C)c1NC(=O)Nc1cccc2c1O[C@H](CN(C)Cc1ccc(Cl)c(Cl)c1)[C@H](C)CN([C@@H](C)CO)C2=O	51.5

Other results follow:
SMILES	NOMO-1 viab
C[C@@H]1CCCCO[C@H](CN(C)Cc2ccc3c(c2)OCO3)[C@@H](C)CN([C@H](C)CO)C(=O)c2cc(NC(=O)Cc3ccccc3)ccc2O1	39.1
Cc1noc(C)c1S(=O)(=O)Nc1ccc2c(c1)C(=O)N([C@H](C)CO)C[C@H](C)[C@H](CN(C)C(=O)NC1CCCCC1)OCCCC[C@@H](C)O2	8.6
CNC[C@@H]1Oc2c(NC(=O)c3cnccn3)cccc2C(=O)N([C@@H](C)CO)C[C@@H]1C	-9.9
Cn1nnnc1SCC(=O)Nc1ccc(N2CCOCC2)c(Cl)c1	6.3
Cc1cc(C)c(O)c(C(=O)CC2CC(=O)NC(=O)C2)c1	17.5
CC(C)NC(=O)N(C)C[C@@H]1Oc2ccc(NC(=O)CCN3CCOCC3)cc2CC(=O)N([C@@H](C)CO)C[C@@H]1C	20.6
C[C@@H]1CN([C@H](C)CO)C(=O)c2cc(NC(=O)C3CC3)ccc2O[C@@H]1CN(C)C(=O)Nc1ccc(F)cc1	18.8
CS(=O)(=O)N(CC(=O)Nc1ccc(F)cc1)c1ccccc1	22.2
C[C@@H]1CN([C@@H](C)CO)C(=O)c2cc(N(C)C)ccc2O[C@@H]1CN(C)Cc1ccccc1	15.8
C[C@@H]1CN([C@H](C)CO)C(=O)Cc2cc(NC(=O)C3CCCCC3)ccc2O[C@@H]1CN(C)C(=O)Nc1ccccc1	14.1
Cc1ccc(S(=O)(=O)Nc2ccc3c(c2)C(=O)N([C@@H](C)CO)C[C@@H](C)[C@@H](CN(C)Cc2ccncc2)O3)cc1	22.8
O=C(N(c1ccccc1)c1ccc(F)cc1)C12CC3CC(CC(C3)C1)C2	7.7
C[C@@H]1CN([C@@H](C)CO)C(=O)c2cc(NS(=O)(=O)c3cn(C)cn3)ccc2O[C@H]1CN(C)C(=O)Nc1ccccc1	15.5
C[C@@H]1CN([C@@H](C)CO)C(=O)c2cc(NS(=O)(=O)c3ccccc3)ccc2O[C@H]1CN(C)S(=O)(=O)c1cn(C)cn1	-15.2
CC(C)(C)c1ccc(Oc2ccc(NC(=O)C3CC=CCC3C(=O)O)cc2)cc1 (stereo unspecified)	8.1
C[C@H]1CN([C@@H](C)CO)C(=O)c2cccc(NS(=O)(=O)c3ccc(Cl)cc3)c2O[C@H]1CN(C)S(=O)(=O)c1cccs1	24.4
C[C@H](CO)N1C[C@H](C)[C@@H](CN(C)S(=O)(=O)c2cccs2)Oc2c(NC(=O)C3CC3)cccc2C1=O	7.9
CCOC(=O)c1c(NC(=O)CSc2nc(C)cc(C(F)(F)F)n2)sc2c1CCCC2	9.1
C[C@H]1CN([C@@H](C)CO)C(=O)Cc2cc(N(C)C)ccc2O[C@@H]1CN(C)S(=O)(=O)c1ccc(F)cc1	-15.2
CC(C)Cc1nc(SC(C)C(=O)Nc2cccc(Cl)c2)n[nH]1 (stereo unspecified)	13.3
C[C@H](CO)N1C[C@H](C)[C@H](CN(C)CC2CC2)Oc2ccc(NC(=O)Nc3ccc(F)cc3)cc2CC1=O	-8.4
Cc1cc(N(CC(=O)NC2CCCCC2)S(C)(=O)=O)ccc1Br	32.5
C[C@@H]1CN([C@@H](C)CO)C(=O)c2cc(NC(=O)NC3CCCCC3)ccc2O[C@@H]1CN(C)S(=O)(=O)c1cccs1	11.0
C[C@@H]1CN([C@H](C)CO)C(=O)c2cc(NS(=O)(=O)c3ccc(Cl)cc3)ccc2O[C@@H]1CN(C)Cc1ccc(-c2ccccc2)cc1	108.6*
Cc1ccc2nc(Nc3ccccc3)cc(C)c2c1	?

Following part.
SMILES	NOMO-1 viab
Cc1ccccc1NC(=O)Cn1cnc2sc(C)c(C)c2c1=O	1.7
CCCN1C(=O)C(O)(CC(=O)c2ccc(OC)c([N+](=O)[O-])c2)c2cc(Br)ccc21 (stereo unspecified)	112.9*
COC(=O)C1c2ccccc2Oc2ccccc21	5.1
CC(=O)NCCOc1nc(N(C)C)nc(N2CCOCC2)n1	11.2
C=C[C@]1(C)C=C2CCC3C(C)(CCC[C@@]3(C)C(=O)O)C2CC1 (stereo partly specified)	26.3
C[C@@H]1CN([C@@H](C)CO)C(=O)c2cc(NC(=O)CCC(F)(F)F)ccc2O[C@@H]1CN(C)Cc1ccc(C(=O)Nc2ccccc2N)cc1	?
CC(C)(C)c1ccc(-c2[nH]nc(NS(=O)(=O)c3ccccc3)c2Br)cc1	?
Cc1ccc(C)c(NC(=O)CSc2c(C)n[nH]c2C)c1	-10.7
C[C@@H]1CN([C@@H](C)CO)C(=O)c2cccc(NC(=O)C3CC3)c2O[C@H]1CN(C)S(=O)(=O)c1cccs1	-21.6
Cn1c(SCC(=O)Nc2ccc(Br)c(Cl)c2)nnc1-c1ccco1	24.3
CC(C)NC(=O)N(C)C[C@H]1Oc2c(NC(=O)Nc3ccc(C(F)(F)F)cc3)cccc2C(=O)N([C@H](C)CO)C[C@H]1C	114.7*
C[C@@H]1CCCCO[C@@H](CN(C)Cc2ccccc2)[C@@H](C)CN([C@H](C)CO)C(=O)c2cc(NS(=O)(=O)c3cccs3)ccc2O1	31.7
Cc1cc(C(=O)Nc2cccc3c2O[C@@H](CN(C)Cc2ccc(Cl)c(Cl)c2)[C@H](C)CN([C@@H](C)CO)C3=O)n(C)n1	68.2
COc1ccc(S(=O)(=O)Nc2cccc3c2O[C@@H](CN(C)C(=O)Nc2ccc4c(c2)OCO4)[C@@H](C)CN([C@H](C)CO)C3=O)cc1	34.8
Cc1ccc(S(=O)(=O)N(C)C[C@@H]2OCCCC[C@@H](C)Oc3ccc(NC(=O)Nc4ccccc4)cc3C(=O)N([C@H](C)CO)C[C@@H]2C)cc1	25.8
CNC[C@@H]1Oc2ccc(NC(=O)Cn3cnnn3)cc2CC(=O)N([C@H](C)CO)C[C@H]1C	-11.6
CS(=O)(=O)N(CC(=O)Nc1ccccc1Br)c1cc(Cl)c(Cl)cc1Cl	8.7
COc1ccc(OC)c(CN2CCN(Cc3cccc([N+](=O)[O-])c3)CC2)c1	-4.0
c1ccc(-c2nnc3n2C2(CCCC2)Cc2ccccc2-3)cc1	-1.1
C[C@@H]1CN([C@H](C)CO)C(=O)Cc2cc(NC(=O)CCC(F)(F)F)ccc2O[C@H]1CN(C)S(=O)(=O)c1cn(C)cn1	5.0

Filtered by structure, the entries above containing bromine (seven)
SMILES	NOMO-1 viab
O=C(CSc1nnc(-c2ccccc2)n1-c1ccccc1)Nc1c(F)cc(F)cc1Br	1.1
CC(=O)c1cccc(NC(=O)C(C)NS(=O)(=O)c2ccc(Br)cc2)c1 (stereo unspecified)	17.4
Cc1cc(N(CC(=O)NC2CCCCC2)S(C)(=O)=O)ccc1Br	32.5
CCCN1C(=O)C(O)(CC(=O)c2ccc(OC)c([N+](=O)[O-])c2)c2cc(Br)ccc21 (stereo unspecified)	112.9*
CC(C)(C)c1ccc(-c2[nH]nc(NS(=O)(=O)c3ccccc3)c2Br)cc1	?
Cn1c(SCC(=O)Nc2ccc(Br)c(Cl)c2)nnc1-c1ccco1	24.3
CS(=O)(=O)N(CC(=O)Nc1ccccc1Br)c1cc(Cl)c(Cl)cc1Cl	8.7

Source: PubChem BioAssay
